Compound activity deposited in PubChem BioAssay by ICCB-Longwood Screening Facility, Harvard Medical School.
Sa growth inh: S. aureus growth inhibition at 42 and 30 °C, primary screen, LtaS inhibitor project, RN4220, two temperatures; OD600, 20 h, 42 °C; hits give low values; 0.53% of 170,000 active; relative growth, % (concentration not given with the values); AID 720641, 2013;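 active means growth at 42 °C up to 50% and 20 or more points under that at 30 °C, or under 10% at both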;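 further: 300 nL library stock went into each well; scaled to the means of positive and negative controls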
HCMV NEC inh: inhibitors of HCMV UL50-UL53 interaction, biochemical, HTRF; HCMV UL50-UL53 nuclear egress complex (human cytomegalovirus); normalized percent inhibition; inhibition, % (no concentration beside the values); 0.15% of 190,000 active;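 active means both replicates at 50% or more, plus weaker picks with an unusually low signal ratio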;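 further: stock transfer was 100 nL into about 20 µL; 0% = negative control wells and 100% = wells with untagged competitor protein; inactives centre near -12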
GIV Gai3 FP: inhibitors of GIV peptide binding to Galpha-i3, primary screen, biochemical, fluorescence polarization, FITC-GIV GBA peptide, rat Galphai3. 90 min; hits give low values; scaled: aluminum fluoride 0%, vehicle 100%. percent of control (FP), % (test concentration not listed). Guanine nucleotide-binding protein G(i) subunit alpha-3 (Rattus norvegicus), P08753. 0.42% of 210,000 active;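 active means replicate mean at 85% of control or lower, very high polarization wells dropped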;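 further: wells of about 15 µL received 100 nL stock; the first replicate is given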
Target sequence (P08753 whole entry, looked up): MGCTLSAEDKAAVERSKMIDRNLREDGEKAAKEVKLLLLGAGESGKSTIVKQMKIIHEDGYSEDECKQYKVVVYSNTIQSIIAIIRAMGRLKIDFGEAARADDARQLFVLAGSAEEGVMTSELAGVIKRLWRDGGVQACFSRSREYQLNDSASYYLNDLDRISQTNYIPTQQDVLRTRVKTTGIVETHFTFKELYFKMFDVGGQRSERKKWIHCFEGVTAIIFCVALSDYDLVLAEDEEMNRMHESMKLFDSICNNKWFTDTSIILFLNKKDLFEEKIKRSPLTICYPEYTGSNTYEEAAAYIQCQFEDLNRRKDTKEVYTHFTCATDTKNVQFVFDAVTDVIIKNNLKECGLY
Sa growth inh second temp: recorded beside Sa growth inh, whose call it bears; relative growth, %; measured here: growth at 30 °C;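 optical density after 20 h as mean of two plates; 100% = untreated growth and lower means inhibition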
Starred values were filed as active, the others as inactive; x = not tested or not shown.

Molecule | Sa growth inh | Sa growth inh second temp | HCMV NEC inh | GIV Gai3 FP
O=S(=O)(c1ccc(Cl)cc1)N1CCCN(c2ncccc2C(F)(F)F)CC1 | 108 | 85 | x | 101
Cc1cccc(C)c1NC(=O)NCCCN1CCN(c2ccccc2)CC1 | 103 | 103 | 35 | 107
COC(=O)c1ccc(CSc2nnc(-c3ccncc3)n2Cc2ccccc2)o1 | 88 | 87 | -8 | 105
COc1ccccc1C1C2=C(CC(C)(C)CC2=O)Nc2nc3ccccc3n21 (stereo not drawn) | 100 | 93 | -8 | 104
CCN(CC)c1ccc(NC(=O)Cn2ncc3c(C)n(Cc4ccccc4F)c(C)c3c2=O)c(C)c1 | 108 | 94 | -9 | 107
COC(=O)c1sc(NC(=O)CSc2cc(-c3ccccc3)ncn2)nc1C | x | x | -14 | 98
CN(CC(=O)NC1CCCCCC1)S(=O)(=O)c1ccc2c(c1)n(C)c(=O)c(=O)n2C | 104 | 87 | 6 | 101
CCOc1ccc(OCCn2c(SCC(=O)O)nc3c(N)ncnc32)cc1 | 92 | 87 | -2 | 106
CSc1nnc(-c2cccs2)o1 | 91 | 86 | -6 | 97
CC(C)c1cc(C(F)(F)F)n2nc(C(=O)O)cc2n1 | 87 | 91 | -33 | 102
CCc1ccccc1NC(=O)Cn1cccc1C1=NC(c2ccccc2)CO1 (stereo not drawn) | 115 | 101 | -5 | 104
Clc1ccc(-c2noc(CSc3ccccn3)n2)cc1 | 110 | 91 | -16 | 103
NNc1nnc2c(n1)[nH]c1ccc(F)cc12 | 79 | 82 | -55 | 106
O=C(NCc1cccc(C(F)(F)F)c1)c1cccs1 | 99 | 92 | x | 102
N/C(=N/OC(=O)Nc1ccccc1)C1COc2ccccc2O1 (stereo not drawn) | 99 | 92 | -1 | 99
COc1ccc(-n2nc3ccc(NC(=O)c4ccc5c(c4)OCCO5)cc3n2)cc1 | x | x | -28 | 96
COc1ccc(C(=O)NCc2nnc(SCC(=O)Nc3ccc(C)cc3C)o2)cc1OC | 71 | 86 | -30 | 101
CCCC(=O)Nc1ccc2c(c1)nc(CN1CCN(C(C)=O)CC1)n2CC | x | x | -15 | 101
Cn1c(=O)[nH]c(=O)c2c1nc1n(CCO)c(-c3ccccc3)cn21 | 106 | 91 | -41 | 106
CCOC(=O)c1c(C)sc(-c2c(-c3cc4ccccc4o3)[nH]c3c2c(=O)n(C)c(=O)n3C)c1O | x | x | -41 | 198
COc1ccc(CNC(=O)CCSCc2ccc(C)cc2)cc1 | 90 | 81 | x | 99
COc1ccc(C2(C(=O)NC(C)(C)C)CCCC2)cc1 | 83 | 91 | 7 | 108
COc1cc2c(cc1NC(=O)CC(C)(C)C)oc1ccccc12 | 98 | 93 | x | 99
CCCCSc1nnc2c(n1)OC(c1sccc1C)N(C(C)=O)c1ccccc1-2 (stereo not drawn) | x | x | -23 | 106
CC/S(=N\S(=O)(=O)c1ccc(C)cc1)c1ccccc1 (stereo not drawn) | 101 | 101 | 7 | 111
O=C(Nc1ccc(F)cc1F)c1cnn(-c2ccc(F)cc2)c1-n1cccc1 | 119 | 105 | x | 102
Cn1cccc1C1=NC(C)(C)CO1 | 98 | 84 | -10 | 101
COc1cccc2cc(C(=O)Nc3ccc(CC(=O)O)cc3)c(=O)oc12 | 99 | 91 | -100 | 120
CCOC(=O)c1c(C)c(C#N)c(N(C(C)=O)C(C)=O)n1-c1ccc(C)cc1 | 95 | 95 | -17 | 99
CCc1cccc(CC)c1N(COC)C(=O)Cn1c(Cc2ccccc2)nc2ccccc21 | 118 | 90 | x | 98

Molecule | Sa growth inh | Sa growth inh second temp | HCMV NEC inh | GIV Gai3 FP
CC12CCC(=O)N1C(C(=O)NC1CCCc3ccccc31)CS2 (stereo not drawn) | 97 | 94 | 8 | x
N#CC(C(=O)Nc1ccccc1)=C1CCCC1 | 95 | 96 | -16 | x
FC(F)(F)CNC1CCN(Cc2ccccc2)CC1 | 79 | 100 | -9 | x
O=C1OCCC1OC(=O)C1c2ccccc2Oc2ccccc21 (stereo not drawn) | 116 | 99 | 9 | x
Cc1c(C(=O)NCc2cccc(Cl)c2)sc2nc[nH]c(=O)c12 | 109 | 88 | x | 108
COC(=O)CSC1=C(C#N)C(c2ccco2)C(C(=O)Nc2ccccc2)=C(C)N1 (stereo not drawn) | 124 | 110 | 5 | x
CC(c1ccccc1)n1c(SCC(=O)Nc2ccccc2)n[nH]c1=O (stereo not drawn) | 99 | 87 | -8 | 104
COCCNC(=O)c1cc2ccccc2oc1=O | 101 | 81 | -68 | 104
CN1C(C(=O)Nc2ccc(OC(F)(F)F)cc2)=CC(c2cccs2)=NS1(=O)=O | 95 | 82 | -5 | 103
O=C(CSc1nnc(-c2ccccc2)o1)c1ccccc1 | 104 | 75 | -12 | x
COc1ccc(CNC(=O)Cc2c(C)c3cc4c(C)coc4c(C)c3oc2=O)cc1OC | 109 | 95 | -26 | 99
CCCNC(=O)Cn1c(CC)nc2onc(C)c2c1=O | x | x | 9 | 107
FC(F)n1c(=S)n(C(F)F)c2ccccc21 | 80 | 94 | -19 | x
COc1ccc(N/C(=N/c2nc(C)cc(=O)[nH]2)NC(=O)c2cccc(Cl)c2)cc1 | 96 | 99 | 13 | 115
Cc1ccc2nc(SCC(=O)N3CCCc4ccccc43)nc(=O)n2c1 | 71 | 85 | -36 | 108
Cc1cccc(NC(=O)Cn2c(=O)n(CCCCCC(=O)NCc3ccccc3)c(=O)c3sccc32)c1 | 102 | 91 | -11 | 106
N#Cc1ccc(-c2ccc(Cl)cc2)nc1Cl | x | x | -7 | 97
O=C(Cn1c(=O)oc2ccccc21)Oc1ccc2c(c1)OCO2 | 83 | 91 | -39 | x
Cn1c(=O)c2cc(NC(=O)c3ccccc3F)c(=O)oc2n(C)c1=O | 91 | 94 | -9 | x
Cc1noc2ncnc(N3CCCC(C(=O)Nc4cccc(C(F)(F)F)c4)C3)c12 (stereo not drawn) | 85 | 80 | x | 104
Clc1ccc(C2C3CC=CC3c3cc(Br)cc4c3N2CC2CC=CC42)cc1 (stereo not drawn) | x | x | -11 | 160
COc1ccc(C(=O)Nc2ccccc2)cc1 | 110 | 93 | -15 | 99
CCOc1ccc2oc(C(=O)N3CCCCC3C(N)=O)c(C)c2c1 (stereo not drawn) | 97 | 94 | -20 | x
COc1ccc(-c2cnn3c(C)cc(C)nc23)cc1OC | 110 | 91 | x | 105
Cc1noc(C)c1C(=O)N1CCSCC1 | 108 | 83 | 1 | 100
COCCNS(=O)(=O)c1cccc(C(=O)Nc2ccccc2)c1 | 88 | 102 | -8 | 102
Cc1[nH]nc2oc(=O)c(Cc3c(F)cccc3Cl)c(C)c12 | 113 | 64 | -8 | 100
O=c1c2ccccc2c(/C=N/c2ncn[nH]2)c(O)n1-c1cccc(C(F)(F)F)c1 | 117 | 47 | -35 | x
Cc1ccc(-c2cc3c4nnc(CCC(=O)NCCCOC(C)C)n4ccn3n2)cc1C | x | x | -14 | 103
CC(C)(C)NC(=O)Cc1ccc(Br)cc1 | 83 | 94 | -21 | x

Compounds above that contain a cyano group, in the order listed:
Molecule | Sa growth inh | Sa growth inh second temp | HCMV NEC inh | GIV Gai3 FP
CCOC(=O)c1c(C)c(C#N)c(N(C(C)=O)C(C)=O)n1-c1ccc(C)cc1 | 95 | 95 | -17 | 99
N#CC(C(=O)Nc1ccccc1)=C1CCCC1 | 95 | 96 | -16 | x
COC(=O)CSC1=C(C#N)C(c2ccco2)C(C(=O)Nc2ccccc2)=C(C)N1 (stereo not drawn) | 124 | 110 | 5 | x
N#Cc1ccc(-c2ccc(Cl)cc2)nc1Cl | x | x | -7 | 97

Going on with the list.
Molecule | Sa growth inh | Sa growth inh second temp | HCMV NEC inh | GIV Gai3 FP
c1ccc2oc(Cc3nc4ccccc4s3)nc2c1 | 78 | 93 | -13 | x
COc1ccc(-c2noc(CSc3nnc(-c4ccccc4)n3-c3ccc(F)cc3)n2)c(OC)c1 | 108 | 83 | 4 | 101
CC1CCCCC1NC(=O)CN(C)S(=O)(=O)c1ccc(Cl)cc1 (stereo not drawn) | 92 | 96 | 9 | x
CCCCc1ccc(NC(=O)CSc2nc(=O)[nH]c3c2CCCC3)cc1 | 133 | 94 | x | 100
CCCC(=O)Nc1cc(C(=O)NC2CC2)ccc1S(=O)(=O)c1ccc(C)cc1 | 106 | 85 | 2 | 104
COc1ccc(OC)c(-n2cnc3cc(C(=O)NC4CCCCCC4)ccc32)c1 | 117 | 84 | x | 108
O=C(NC1CCS(=O)(=O)C1)c1cc(-c2ccc(Cl)cc2)oc1C(F)(F)F (stereo not drawn) | 118 | 96 | 14 | 113
OC1CCCN(Cc2ccc(Br)cc2)C1 (stereo not drawn) | 114 | 105 | 2 | 108
Cc1cc(C)c2c(-n3cccc3)c(C(=O)NCCCN3CCN(c4ccc(F)cc4)CC3)sc2n1 | 116 | 82 | x | 107
COc1ccc(NC(=O)C(C)Oc2ccc3c(-c4ccccc4)cc(=O)oc3c2)cc1 (stereo not drawn) | 102 | 100 | x | 104
CCOC(=O)C(C)Oc1cc2oc(=O)c3c(c2cc1Cl)CCC3 (stereo not drawn) | 86 | 74 | -17 | 97
Cc1ccc2nc(CN3CCN(C(=O)Nc4cccc(C)c4C)CC3)oc2c1 | 113 | 88 | x | 101
N#Cc1c(-c2ccco2)cc(-c2cccs2)nc1N | 125 | 93 | 45 | 114
CCOC(=O)/C=C1\SC(C)C(=O)N1CC(=O)N(CCC#N)c1ccccc1 (stereo not drawn) | 80 | 87 | -15 | x
COC(=O)c1ccccc1S(=O)(=O)/C(C#N)=C/Nc1nc(SC)nc(C2CC2)n1 | 87 | 87 | 3 | 108
CC(Oc1ccccc1)c1nc2ccccc2n1C (stereo not drawn) | 124 | 88 | 25 | 107
CCCCCCc1cc2c(=O)c(-c3csc(C)n3)coc2cc1OCC(=O)OCC | x | x | -2 | 100
Cc1cccc(OCC(=O)N2CCN(c3nc4ccccc4cc3-c3noc(C)n3)CC2)c1 | x | x | -19 | 106
O=C(NC1CCCc2ccccc21)c1cnn(-c2ccccc2)c1-n1cccc1 (stereo not drawn) | 118 | 87 | x | 99
O=C(O)c1cccc(CN2C(=O)c3ccccc3C2=O)c1 | 119 | 98 | -11 | x
O=C(CSc1ncnc2sc(-c3ccccc3)cc12)NC1CCS(=O)(=O)C1 (stereo not drawn) | 91 | 95 | -32 | x
COc1ccc(C2CC(=O)C3=C(C2)Nc2ccccc2NC3c2cc(Br)c(O)c(OC)c2)cc1 (stereo not drawn) | x | x | -16 | 103
O=C(O)c1ccc(N=NSCCO)cc1 | 93 | 89 | -43 | 103
Cc1ccc(S(=O)(=O)N2CCC(CNC(=O)c3cccs3)CC2)cc1 | 126 | 82 | -3 | 105
Cc1ccc(/C=C/c2nc(-c3ccc4c(c3)[nH]c(=O)c(=O)n4C(C)C)no2)cc1 | x | x | -9 | 100
O=C(c1cccs1)n1cc(C(F)(F)F)ccc1=O | 99 | 87 | -36 | x
CNC(=O)c1ccc(N2CCCN(Cc3ccccc3C)C2=O)cc1 | x | x | 10 | 108
CC(C)(C)OC(=O)NCc1ccc(C(=O)O)cc1 | 73 | 83 | -30 | x
Cc1cc2nc(CSc3ccccc3NC(=O)c3ccc4c(c3)OCO4)cc(=O)n2o1 | 98 | 95 | -11 | 108
CC(C)Cc1c(O)nc(SCC(=O)NC(C)(C)C)[nH]c1=O | 105 | 93 | x | 96

Complete entries, quoted from the list. Order of values: Sa growth inh, Sa growth inh second temp, HCMV NEC inh, GIV Gai3 FP
`O=C(NC1CCS(=O)(=O)C1)c1cc(-c2ccc(Cl)cc2)oc1C(F)(F)F` (stereo not drawn) as listed: 118, 96, 14, 113
`CNC(=O)c1ccc(N2CCCN(Cc3ccccc3C)C2=O)cc1` as listed: x, x, 10, 108
`Cc1cc(C)c2c(-n3cccc3)c(C(=O)NCCCN3CCN(c4ccc(F)cc4)CC3)sc2n1` as listed: 116, 82, x, 107

Next section
Molecule | Sa growth inh | Sa growth inh second temp | HCMV NEC inh | GIV Gai3 FP
CC(C)c1ccc(-c2c(C#N)c(N)nc3sc(C(=O)Nc4nccs4)c(N)c23)cc1 | x | x | -23 | 91
Cc1ccc(SCC(=O)c2cc(C)c(O)c(C)c2)cc1 | x | x | 2 | 100
Cc1ccc2c(c1)N(C(=O)N1CCC(C(=O)Nc3cccc(F)c3)CC1)CCO2 | 93 | 82 | -16 | 102
O=C(O)CC1N=C(Nc2nc3ccccc3o2)NC1=O (stereo not drawn) | 81 | 96 | 2 | x
CC(=O)N1c2cc(S(=O)(=O)N3CCC(Cc4ccccc4)CC3)c(Br)cc2CC1C (stereo not drawn) | x | x | -11 | 103
COC(=O)c1ccc2c(=O)n(NC(=O)C3CC3)c(=S)[nH]c2c1 | 94 | 104 | 0 | 104

Part of the list above, with each value named.
> NNc1nnc2c(n1)[nH]c1ccc(F)cc12
  Sa growth inh: 79
  Sa growth inh second temp: 82
  HCMV NEC inh: -55
  GIV Gai3 FP: 106
> O=C(NCc1cccc(C(F)(F)F)c1)c1cccs1
  Sa growth inh: 99
  Sa growth inh second temp: 92
  HCMV NEC inh: x
  GIV Gai3 FP: 102
